GLA inh pH 4.5: blocks human alpha-galactosidase A at pH 4.5. 230,000 tested, under 10 active. P06280. purified enzyme, 4-MU-alpha-Gal fluorescence, pH 4.5. activity change, negative = inhibition, % at 105 µM. AID 1467; inconclusive = small, poorly fitted or top-dose-only inhibition, or a rising curve; inactive = flat fitted curve, though single readings scatter; no compound was filed as active;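 note: 0% = full activity with enzyme and -100% = basal without enzyme; dose as in the result columns while the protocol names 77 µM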
Target sequence (P06280 whole entry, looked up): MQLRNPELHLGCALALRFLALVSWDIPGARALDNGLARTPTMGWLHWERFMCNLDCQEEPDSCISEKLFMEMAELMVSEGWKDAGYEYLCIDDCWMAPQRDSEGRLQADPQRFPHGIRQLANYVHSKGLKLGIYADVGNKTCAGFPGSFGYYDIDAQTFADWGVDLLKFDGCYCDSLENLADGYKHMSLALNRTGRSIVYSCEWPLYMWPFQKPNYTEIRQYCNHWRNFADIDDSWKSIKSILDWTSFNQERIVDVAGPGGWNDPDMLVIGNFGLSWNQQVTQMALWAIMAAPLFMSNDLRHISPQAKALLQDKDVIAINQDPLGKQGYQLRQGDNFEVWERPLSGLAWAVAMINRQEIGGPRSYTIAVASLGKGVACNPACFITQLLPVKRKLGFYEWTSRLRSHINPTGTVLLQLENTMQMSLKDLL
* hit, by the source's call; & = joins results of further samples.

mol | GLA inh pH 4.5
CC(C)C[C@@H](CC(=O)N[C@H](CC(=O)N[C@@H]1CCNC[C@H]1C(=O)N[C@H](CC(=O)N[C@@H](CCC(=O)O)CC(=O)O)Cc1c[nH]c2ccccc12)C(C)C)NC(=O)[C@@H]1CCCC[C@H]1N | -2
Cc1ccc2c(c1)C(=O)[C@@]1(O)CCN(c3ccccc3)C1=N2 | -7
CC1CCC(C(C)C)[C@H](OC(=O)c2ccccc2)C1 (stereo partly drawn) | -1
COc1ccc(-c2nc3c(c4c2C[C@H](c2ccccc2)OC4)CN(S(=O)(=O)c2ccc(C)cc2)CC3)c(C)c1 | 0
COc1ccc(-c2cnc(-c3cccnc3)o2)cc1 | 0
CCOc1ccccc1-c1ccc(C(=O)O)o1 | 2
CCCn1c(-c2ccc(F)cc2)nc2c(NCCCN3CCOCC3)nc(C)nc21 | 1
CCCCCC(=O)/C=C/[C@H]1[C@H](O)CC(=O)[C@@H]1C/C=C\CCCC(=O)O | -4
Cc1cccc(CNc2nc(-c3cccnc3)nc3ccccc23)c1 | -7
CSc1nc(N)c2ncn([C@H]3O[C@H](COP(=O)(O)OP(=O)(O)OP(=O)(O)O)[C@@H](O)[C@@H]3O)c2n1 | 3
Cc1c2oc3c(C)ccc(C(=O)N[C@@H]4C(=O)N[C@@H](C(C)C)C(=O)N5CCC[C@@H]5C(=O)N(C)CC(=O)N(C)[C@@H](C(C)C)C(=O)O[C@H]4C)c3nc-2c(C(=O)N[C@@H]2C(=O)N[C@@H](C(C)C)C(=O)N3CCC[C@@H]3C(=O)N(C)CC(=O)N(C)[C@@H](C(C)C)C(=O)O[C@H]2C)c(N)c1=O | -6
C[C@H]1Cc2c(-c3ccccc3)nc3c(c2CO1)CN(C(=O)NCc1ccco1)CC3 | -3
CCC(C)C1NC(=O)C(CCNCS(=O)(=O)O)NC(=O)C(NC(=O)C(CCNCS(=O)(=O)O)NC(=O)C(NC(=O)C(CCNCS(=O)(=O)O)NC(=O)CCCCC(C)C)C(C)O)CCNC(=O)C(C(C)O)NC(=O)C(CCNCS(=O)(=O)O)NC(=O)C(CCNCS(=O)(=O)O)NC(=O)C(C(C)CC)NC1=O (stereo not drawn) | -1
Nc1ncnc2c1c(I)cn2C1OC(CO)C(O)C1O (stereo not drawn) | -9
COC(=O)[C@@]1(Cc2ccc(F)cc2)[C@H]2c3cc(C(=O)N(C)C)n(Cc4cc(C)n(C)n4)c3C[C@H]2CN1C(=O)c1ccccc1 | -4
C=CCOC(=O)N[C@H](c1ccccc1)C(C(C)=O)C(C)=O | -5
COC1CCC(C(=O)c2ccc3nc4c(cc3c2)CCCO4)CC1 (stereo not drawn) | -9
CCCC(=O)NCCc1c2n(c3ccc(OC)cc13)Cc1ccccc1-2 | -2
COc1cccc([C@@H]2Oc3ccc(Br)cc3C[C@H]2OC(=O)NS(=O)(=O)c2ccc(F)cc2)c1 | -4
NCC(O)CC(=O)O (stereo not drawn) | 3
C=C(C)C1CC=C(C(=O)O)CC1 (stereo not drawn) | 2&2
CCCn1c(C)nc2c(NC3CCN(Cc4ccccc4)CC3)nc(C)nc21 | -1
COc1ccc2c(=O)ccoc2c1 | -10
COc1ccc(-c2coc3cc(O)ccc3c2=O)c(OC)c1 | -5
COc1cc(OC)c(/C=C2/C(=O)Nc3ccccc32)c(OC)c1 | -6
Oc1ccc2c(c1)OCC1c3cc4c(cc3OC21)OCO4 (stereo not drawn) | -11
CS(=O)(=O)CCNCc1nc(-c2ccc3ncnc(Nc4ccc(OCc5cccc(F)c5)c(Cl)c4)c3c2)cs1 | 5
O=C(O)c1c(Sc2ccccc2)c2cc(Cl)ccc2n1Cc1ccc(Cl)cc1 | -16
[Li+] | 9
O=[N+]([O-])c1cccc(C2=N[C@@H](Cc3ccccc3)CO2)c1 | -1
NC(Cc1cccc(-c2ccccc2CP(=O)(O)O)c1)C(=O)O (stereo not drawn) | -14
COC(=O)[C@H](COC(C)(C)C)NC(=O)O[C@@H]1C(=O)c2ccc(OC)cc2O[C@H]1c1cccc(C(F)(F)F)c1 | -11
CCCCCC(=O)CC[C@@H]1[C@@H](C/C=C\CCCC(=O)O)[C@@H](O)C[C@H]1O | -2
CC(C)CCCC(C)C1CCC2C3CC[C@H]4CC(=O)CC[C@@]4(C)C3CC[C@@]12C (stereo partly drawn) | 6
N#Cc1ccc(CS(=O)(=O)c2ccccc2)cc1 | -5
CCCCCCCC1=Cc2ccc(F)cc2C(C(C(C)=O)C(=O)OC)N1C(=O)OC (stereo not drawn) | -3&6
CCc1cc(C(C)=O)c(O)cc1OCCCCCC(C)(C)c1nn[nH]n1 | -5
C[C@H]1CC2[C@@H]3CCC4=CC(=O)C=C[C@]4(C)[C@@]3(F)[C@@H](O)C[C@]2(C)[C@@]1(O)C(=O)CO (stereo partly drawn) | -8
CC(=O)Oc1cccc(O)c1 | 7
Nc1ccc(O)c(C(=O)O)c1 | -5
CC(=O)Nc1ccc(S(=O)(=O)N2CCc3nc(COc4ccccc4)c4c(c3C2)CO[C@@H](C)C4)cc1 | 3
Cc1ccccc1-c1nc(NC2CCNCC2)c2ccccc2n1 | -2
C=C1CCC(O)C/C1=C\C=C1/CCCC2(C)C1CCC2C(C)CCCC(C)C (stereo not drawn) | -14
COC(=O)[C@@]1(Cc2ccc(F)cc2)[C@H]2c3cc(C(=O)N(C)C)n(CC4CC4)c3C[C@H]2CN1C(=O)c1ccccc1 | -7
COc1cc2c(cc1O)-c1ccccc1CN(C)C2 | 4
Cn1c(N)c(C(=O)COC(=O)c2cc(C(F)(F)F)nc3c(C(F)(F)F)cccc23)c(=O)n(C)c1=O | 2
COc1cccc([C@@H]2Oc3ccc(OC)cc3C(=O)[C@H]2OC(=O)NCc2ccco2)c1 | -1
Cc1ccc(S(=O)(=O)OCCc2ccccc2)cc1 | -1
Nc1nc2c(ncn2[C@@H]2O[C@H](CO)[C@@H](O)[C@H]2O)c(=O)[nH]1 | 7
Nc1nc2c(nc(Br)n2C2OC(CO)C(O)C2O)c(=O)[nH]1 (stereo not drawn) | 3
C[N+]1(C)CC(O)[C@H](C(=O)[O-])C1 (stereo partly drawn) | 4
Cc1cc2oc(=O)cc(-c3ccccc3)c2c(C)c1-c1ccoc1 | -5
C=CC1=C2C=C(C3CC3)N(CC(C)C)C=C2C(=O)C(C)(OC(=O)c2ccco2)C1=O (stereo not drawn) | 4
CCCCC/C=C\C/C=C\C/C=C\C/C=C\CCCC(=O)O[C@@H](CO)COC(=O)CCCCCCCCCCCCCCCCC | 3
CC(C)[C@H](CO)Nc1nc(Nc2ccc(C(=O)O)c(Cl)c2)c2ncn(C(C)C)c2n1 | -14
Cc1cccc2c3c(ccc12)C1=C(C(=O)C3=O)C(C)CO1 (stereo not drawn) | 3
CC(=O)Oc1ccc(/C=C/C(=O)CC2OC(Oc3cc(OC(C)=O)c4c(c3)O[C@@H](c3ccc(OC(C)=O)cc3)CC4=O)C(OC(C)=O)C(OC(C)=O)C2OC(C)=O)cc1 (stereo partly drawn) | -22
CC(C)=CCC/C(C)=C/CC/C(C)=C/CC/C(C)=C/CO | 1
Clc1ccccc1-c1cc(NCc2cccnc2)ncn1 | 8
C=CC[C@](C)(O)c1ccccc1 | -1

Additional structures:
mol | GLA inh pH 4.5
C[C@@H]1C[C@H](OC(=O)c2ccccc2O)CC(C)(C)C1 | 0
CCCCC[C@H](O)/C=C/C=C\CCCCCCCCCC(=O)O | -2
COc1ccc2cccc(N3CCN(CCNC(=O)c4ccc(F)cc4)CC3)c2c1 | -5
COc1ccc2c(=O)c(OC)c(-c3ccccc3)oc2c1 | 1
COc1ccccc1-c1nc(NCCNC(C)=O)c2ccccc2n1 | 3
CC1(C)CC[C@]2(C(=O)O)C(O)C[C@@]3(C)C(=CCC4[C@@]5(C)CCC(O)C(C)(C)C5CC[C@@]43C)C2C1 (stereo partly drawn) | -5
N=C(N)N | -8
C[C@@H](C(=O)O)c1ccc(N2Cc3ccccc3C2=O)cc1 | 4
CCCn1c(-c2ccc(F)cc2)nc2c(NCCCN(CC)CC)nc(C)nc21 | -1
N#CCCCSc1nnnn1-c1cc(C(F)(F)F)cc(C(F)(F)F)c1 | -20
COC(=O)[C@@]1(Cc2ccccc2)[C@H]2c3cc(C(=O)N4CCCC4)n(Cc4ccccn4)c3C[C@H]2CN1C(=O)c1ccccc1 | -4
CC1(C)S[C@H]2C(NC(=O)[C@@H](N)c3ccc(O)cc3)C(=O)N2[C@@H]1C(=O)O (stereo partly drawn) | 6
O=S(=O)(CCc1ccccc1)c1nnnn1C1CCCCC1 | -3
C=CCOc1ccc(CC(=O)O)cc1Cl | -13
COc1ccccc1CC(=N)N1C[C@@H]2C(=O)CCC(c3ccccc3)(c3ccccc3)[C@@H]2C1 | -5
O=Cc1ccc(B(O)O)cc1 | -1
C=CCSC[C@@H]1Nc2cc(Cl)c(S(N)(=O)=O)cc2S(=O)(=O)N1 | 5
CCOC(=O)c1c(C)[nH]c2ccc3c(c12)CN1CCc2cc(OC)ccc2[C@@H]1O3 | -1
O=C1c2ccccc2CC[C@H]1CNCCc1ccc(O)cc1 | -2
C=CC1=C(C)C2=NC1=CC1=NC(=CC3=NC(=CC4=NC(=C2)C(C)=C4CCC(=O)O)C(CCC(=O)O)=C3C)C(C=C)=C1C.[Zn] | -18

The last 6 records of the section above open the next one:
mol | GLA inh pH 4.5
COc1ccccc1CC(=N)N1C[C@@H]2C(=O)CCC(c3ccccc3)(c3ccccc3)[C@@H]2C1 | -5
O=Cc1ccc(B(O)O)cc1 | -1
C=CCSC[C@@H]1Nc2cc(Cl)c(S(N)(=O)=O)cc2S(=O)(=O)N1 | 5
CCOC(=O)c1c(C)[nH]c2ccc3c(c12)CN1CCc2cc(OC)ccc2[C@@H]1O3 | -1
O=C1c2ccccc2CC[C@H]1CNCCc1ccc(O)cc1 | -2
C=CC1=C(C)C2=NC1=CC1=NC(=CC3=NC(=CC4=NC(=C2)C(C)=C4CCC(=O)O)C(CCC(=O)O)=C3C)C(C=C)=C1C.[Zn] | -18
CC(C)[C@@H]1[C@H]2CC[C@H](C2)[C@H]1N | 1
CCC/C=C(\CCC)C(NC(=O)c1ccc(C(F)(F)F)cc1)c1ccc(C(F)(F)F)cc1 (stereo not drawn) | -8
CN(Cc1cnc2nc(N)nc(N)c2n1)c1ccc(C(=O)N[C@H](CCC(=O)O)C(=O)O)cc1 | 5
C=C1C(=O)OC2C[C@@]3(C)CCCC(C)C3=CC12 (stereo partly drawn) | -5
C[C@H]1Cc2c(COc3ccccc3)nc3c(c2CO1)CN(C(=O)NCc1ccco1)CC3 | -14
C=CC1=C2C=C(C3CC3)N(Cc3ccc4c(c3)OCO4)C=C2C(=O)C(C)(OC(=O)c2ccco2)C1=O (stereo not drawn) | 6
Cc1cccc(CNc2ccnc(-c3cccc(NS(C)(=O)=O)c3)n2)c1 | 2
Nc1nc(SCc2ccc([N+](=O)[O-])cc2)c2ncn([C@@H]3O[C@H](CO)[C@H](O)[C@H]3O)c2n1 | -4
COCCCCC(=NOCCN)c1ccc(C(F)(F)F)cc1 | -7&-8
C/C=C1/C2C=C(C)CC1(N)c1ccc(=O)[nH]c1C2 (stereo not drawn) | 1
COC(=O)[C@@H]1C[C@H]1[C@@H](NC(=O)c1cnccn1)c1ccccc1 | -2
CCCn1c(C)nc2c(NCC(C)(C)CN(C)C)nc(C)nc21 | -5
Cc1nc(NCc2ccccc2)c2nc(-c3ccccc3)n(CCN3CCCC3)c2n1 | -5
CC1(C)C(O)CC[C@]2(C)C1CC[C@@]1(C)C2C(=O)C=C2[C@@H]3C[C@@](C)(C(=O)O)CC[C@@]3(C)CCC21C (stereo partly drawn) | -3
COC(=O)N1C2CC(=O)O[C@@H]3c4cc5c(cc4[C@]1(C)[C@@]3(Br)c1ccccc12)OCO5 | 0
CCOC(=O)CNC(=O)O[C@H]1C(=O)c2cc(OC)ccc2O[C@@H]1c1ccc(OC)c(Br)c1 | -1
COC(=O)CCC(C)C1CCC2C3C(C[C@H](O)C12C)C1(C)CC[C@@H](O)CC1C[C@H]3O (stereo partly drawn) | -8
COc1ccc(NC(=O)/C=C/c2ccc(Cl)cc2)cc1 | -5
COC(=O)N1CC=CC1(C)C(=O)NCC1CC1 (stereo not drawn) | -5
COc1cc2cc3c4cc(OC)c(OC)cc4cc[n+]3c(C)c2cc1OC | 7&5
CCCCC(=O)Oc1ccccc1C(=O)O | -3
C=CCOC(=O)N[C@H](/C(C(=O)OC)=C(\C)NCc1ccccc1)c1cccc(C(F)(F)F)c1 | -13
COC(=O)[C@@H]1[C@@H]2C[C@H]3c4[nH]c5cc(OC)ccc5c4CCN3C[C@@H]2C[C@H](OC(=O)/C=C\c2cc(OC)c(OC)c(OC)c2)[C@H]1OC | 3
COC(=O)[C@@]1(Cc2ccccc2)[C@H]2c3cc(C(=O)N4CCCC4)n(Cc4cccc5ccccc45)c3C[C@H]2CN1C(=O)c1ccccc1 | -6
OCC(O)C(O)C(O)C(O)CO (stereo not drawn) | -8
CNCCC(Oc1ccccc1C)c1ccccc1 (stereo not drawn) | -8
CCCc1cc2c(n1Cc1ccc(OC)cc1)C(C)C1CN(C(=O)c3ccccc3)C(C)(C(=O)OC)C21 (stereo not drawn) | -25
CC1/C=C/C=C/C=C/C=C/C=C/C=C/C=C/C(OC2OC(C)C(O)C(N)C2O)CC2O[C@@](O)(CC(O)CC(O)C(O)CCC(O)CC(O)CC(=O)OC(C)[C@H](C)C1O)CC(O)C2C(=O)O (stereo partly drawn) | -11
CC(=O)OC1CC[C@@]2(C)C(CC[C@@]3(C)C2CC=C2C4CC(C)(C)CC[C@]4(C)CC[C@@]23C)C1(C)C (stereo partly drawn) | -1

Screens: PubChem, National Center for Advancing Translational Sciences (NCATS)

A portion of the library. The share of hits here may be higher or lower than overall.
